Screening results deposited in PubChem by National Center for Advancing Translational Sciences (NCATS).
SARS PLP yeast – SARS-CoV PLP inhibition in yeast. Potency, µM (titrated, usually from 32.9 µM), inactives show at the highest dose activity, positive = growth rescue. AID 485353. S. cerevisiae expressing SARS-CoV PLpro, growth rescue; control for the full effect not named in the record. 0.19% of 330,000 active; note: 0% is about no effect; nearly all actives have a fitted effect of over 55% in size; growth read by luminescence after 48 h
RE007 growth inh – less growth of the S. pombe RE007 Vpr strain | S. pombe RE007 Vpr strain, BacTiter-Glo ATP luminescence, 24 h; control for the full effect not named in the record | Potency, µM (top dose mostly 92.2 µM), for inactives: top-dose activity change, negative = less growth | 0.21% of 360,000 active; active = well fitted falling curve with a large enough effect; inconclusive = small, poorly fitted or top-dose-only effect; inactive = no such curve, though single readings can be large or run the other way;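 note: % is set by controls: 0 for no effect and ±100 for the full control effect; nearly all actives have a fitted effect of over 50% in size; the assay follows cell death caused by Vpr and the record does not say whether a fall means rescue or toxicity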
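Fission yeast RE007 carrying one integrated HIV-1 vpr copy, seeded at OD 0.01 in PMG+AL medium with 23 nL pinned compound. Grown 24 h at 30 degrees; viability read by BacTiter-Glo luminescence after 5 min.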
Cruzain noTriton – blocks cruzain activity in detergent-free assay. P25779. purified cruzain, Z-FR-AMC fluorescence, no detergent. Potency, µM, inactives show max response, negative = inhibition, usual class: inhibitors. 2.3% of 200,000 active. AID 1476; active = well fitted curve in the direction sought with a large enough effect; inconclusive = small, poorly fitted or top-dose-only effect, or another doubt; inactive = no such curve, though single readings can be large; an effect the other way counts as inactive or inconclusive;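 note: plate controls were enzyme without inhibitor for no effect and buffer without enzyme for full effect; nearly all actives have a fitted effect of over 40% in size; top concentration of the series not given in the record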
Target sequence (P25779 123-467 limits assumed): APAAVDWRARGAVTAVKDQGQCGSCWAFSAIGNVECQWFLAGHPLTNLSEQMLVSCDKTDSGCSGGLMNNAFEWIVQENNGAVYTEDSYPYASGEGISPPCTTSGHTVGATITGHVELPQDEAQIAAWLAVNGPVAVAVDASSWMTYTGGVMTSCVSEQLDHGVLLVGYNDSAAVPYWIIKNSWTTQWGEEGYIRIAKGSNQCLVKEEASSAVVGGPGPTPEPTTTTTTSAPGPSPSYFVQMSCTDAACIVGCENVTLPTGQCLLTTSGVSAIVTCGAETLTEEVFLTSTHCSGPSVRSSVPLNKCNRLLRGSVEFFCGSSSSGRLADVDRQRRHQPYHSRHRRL
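Purified cruzain at 1.5 nM, pre-incubated 15 min with compound at room temperature in 100 mM sodium acetate pH 5.5, 5 mM DTT, 0.00005% Triton X-100. Reaction started with 2 uM Z-FR-AMC; AMC fluorescence increase over 60 s gives rate.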
Marburg entry inh – inhibitors of Marburg virus binding or cell entry; Marburg virus pseudotyped entry inhibition, cell reporter; control for the full effect not named in the record; about a third of the inactives were read at about 46 µM; Potency, µM (doses to about 37.8 µM), inactives show at the top dose activity change, negative = inhibition, usual class: inhibitors; 1.8% of 300,000 active; AID 540276; active = well fitted inhibition curve with a large enough effect; inconclusive = small, poorly fitted or top-dose-only effect, or effect the other way; inactive = flat fitted curve, though single readings scatter; tested in HEK293 cells; about a fifth of its hits are not listed in these tables; note: % is set by controls: 0 for no effect and ±100 for the full control effect; luciferase read-out
NS1 function inh – influenza NS1 inhibition; 0.4% of 270,000 active; S. cerevisiae slowed by influenza A NS1, growth recovery by OD600; Potency, µM (doses to about 46.1 µM), for the others: top-dose activity, positive = more growth; note: actives are rising curves; nearly all actives have a fitted effect of over 50% in size
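Recovery from NS1-induced slow growth read by OD600 in budding yeast switched to galactose assay medium (pH 6.0, -URA) at 1:100 dilution. Compound 23 nl per well; the matching strain lacking NS1 serves as control.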
Cruzain Triton – inhibitors of Trypanosoma cruzi cruzain with detergent. P25779. purified cruzain, Z-FR-AMC fluorescence, 0.01% Triton. Potency, µM, without a hit: max response, negative = inhibition, usual class: inhibitors. 0.43% of 200,000 active; active = well fitted curve in the direction sought with a large enough effect; inconclusive = small, poorly fitted or top-dose-only effect, or another doubt; inactive = no such curve, though single readings can be large; an effect the other way counts as inactive or inconclusive;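 note: plate controls were neutral wells for no effect and buffer without enzyme for full effect; nearly all actives have a fitted effect of over 40% in size; top concentration of the series not given in the record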
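15 min RT preincubation of 1.5 nM cruzain with compound, then 2 uM Z-FR-AMC added; kinetic AMC fluorescence, 60 s delta. Triton X-100 0.01%, pH 5.5.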
Lassa entry inh – Lassa virus entry inhibition; 1.2% of 300,000 active; Potency, µM (titrated, usually from 37.9 µM), without a hit: top-dose activity change, negative = inhibition, hits mostly inhibitors; Lassa virus pseudotype entry inhibition, cell reporter; control for the full effect not named in the record; active means well fitted inhibition curve with a large enough effect; inconclusive means small, poorly fitted or top-dose-only effect, or effect the other way; inactive means flat fitted curve, though single readings scatter; tested in HEK293 cells; note: % is set by controls: 0 for no effect and ±100 for the full control effect; nearly all actives have a fitted effect of over 50% in size; luciferase read-out
2A StopGo – FMDV 2A StopGo reporter, luciferase signal | human cells with a luciferase reporter of 2A StopGo recoding; control for the full effect not named in the record | Potency, µM (highest dose often 57.9 µM), for the others: top-dose signal change, negative = less light | 1.2% of 410,000 active; active = well fitted falling curve with a large enough effect; inconclusive = small, poorly fitted or top-dose-only effect; inactive = no such curve, though single readings can be large or run the other way; tested in HEK293T cells; note: % is set by controls: 0 for no effect and ±100 for the full control effect; nearly all actives have a fitted effect of over 45% in size; luciferase light after 4 h
An asterisk follows results filed as active; ? = inconclusive; · = not tested or not shown; & = joins results of further samples; [ ] = dose if it differs, or a comment. Unless noted, calls come from the whole dose curve; as a rule, active means well fitted rising curve with a large enough effect; inconclusive means small, poorly fitted or top-dose-only effect; inactive means no such curve, though single readings can be large or run the other way. Potency is the fitted concentration of half-maximal effect.

SMILES	SARS PLP yeast	RE007 growth inh	Cruzain noTriton	Marburg entry inh	NS1 function inh	Cruzain Triton	Lassa entry inh	2A StopGo
O=C(Oc1cc(=O)oc2c1c(=O)n1c3c(cccc23)CC1)c1ccccc1	1%	?	·	1%&1%[46.1 µM]	-28%	·	-14%	22%
N=c1sccn1CC(=O)NCc1ccc(Cl)cc1Cl	1%	-17%	·	13µM*	·	·	8%[46.1 µM]	15%
CC(C)(C)c1c(Cl)c(O)c(-c2ccccc2)c(=O)n1-c1ccccc1	1%	8%	·	19%[46.1 µM]	9%	·	10%[46.1 µM]	-4%
O=C(COc1ccc(-c2nnco2)cc1)NCc1ccccc1Cl	11%	2%	18%	-22%	4%	-4.1%	-9%	-7%
Cc1ccc(CNC(=O)CN2C(=O)CSc3ccc(S(=O)(=O)N4CCC(C)CC4)cc32)cc1	2%	12%	·	?	29%	·	-24%[46.1 µM]	5%
COc1cccc(CNC(=O)CCC2CCCN(C(=O)c3ccc(OC)c(F)c3)C2)c1 (stereo unspecified)	2%	4%	·	·	1%	·	·	0%
Cc1nc(S(=O)(=O)NC2CCCCC2)c(C#N)c(C)c1Cl	-2%	8%	-14%	-24%	-9%	0.2%	-7%	80%[activator]
O=C1CC(=C2c3ccccc3-c3ccccc32)C(=O)N1CCCCN1CCN(c2ccccc2)CC1	-29%	-16%	16µM*	?	?	-16%	2%	-27%
O=C(NCCc1ccc(Cl)cc1)c1cc(-c2ccncc2)nc2ccccc12	-5%	-14%	·	·	-31%	·	·	-17%
CC(C)(C)c1nn2cnnc2n(/N=C/c2ccccc2)c1=O	23%	24%	-5%	0%	?	0.1%	0%	-5%
CCOC(=O)COc1ccccc1/C=N/O	0%	-2%	-1%	15%	-7%	-1.9%	3%	2%
Cc1cc(C)n(-c2ccc(C(=O)OCC(=O)Nc3ccc(S(=O)(=O)N4CCCCC4)cc3)cc2)n1	3%	7%	-17%	?	29%	-0.6%	7%	1%
CN(Cc1cccnc1)Cc1c(C(=O)N2CCc3ccccc3C2)nc2ccc(Cl)cn12	-1%	-10%	·	·	1%	·	·	-23%
O=[N+]([O-])c1ccc(Cl)cc1Sc1nc2ccccc2o1	-13%	0%	-14%	-4%	-16%	-6.8%	-13%	-35%
Cc1cc(=O)oc(C)c1C(=O)NCc1ccccn1	0%	-11%	-5%	8%	11%	-0.1%	22%	-6%
Cc1ccc2c(c1)c1c(c(=O)n(Cc3ccccc3)c(=O)n1Cc1cccc(F)c1)n2C	·	·	-6%	·	·	-1.2%	9%[46.1 µM]	-16%
COc1ccc(-c2coc3cc(O)ccc3c2=O)cc1O	1%	-13%	·	·	5%	·	·	15%
Cn1ccnc1SCC(=O)NC12CC3CC(CC(C3)C1)C2	1%	-17%	5%	12%	-3%	8.2%	19%	·
CCOC(=O)c1csc(NC(=O)c2cc3ccccc3o2)n1	-1%	-28%	·	·	-5%	·	·	9%
O=C(c1cccnc1Nc1ccccc1F)N1CCOCC1	-1%	-6%	·	7%[46.1 µM]	·	·	26%[46.1 µM]	17%
COc1ccccc1CNC(=O)c1cc(-c2cccnc2)nc2ccccc12	-4%	22%	·	-42%[46.1 µM]	·	·	?	-19%
CCOC(=O)C1CCCN(C(=O)c2csc(-c3ccc4c(c3)CCO4)n2)C1 (stereo unspecified)	0%	11%	·	?	-3%	·	?	-30%
OCC1(Cc2ccccc2)CCCN(Cc2ccn[nH]2)C1 (stereo unspecified)	-1%	-5%	·	·	2%	·	·	6%
Cc1ccc(OCCC(=O)OCC(=O)NC(=O)NC2CCCC2)cc1	-9%	-27%	·	-2%	·	·	12%	-12%
CCCCCCCC1(C)NC(=O)NC1=O (stereo unspecified)	-1%	3%	·	1%[46.1 µM]	5%	·	1%	-22%
COc1ccc(NC(=O)C2CCCN2S(=O)(=O)c2cccc3cccnc23)c(OC)c1 (stereo unspecified)	-60%	1%	-9%	-24%&-24%	-96%	0.1%	1%	-5%
COc1cc(OC)c(N(C)C(=O)c2cn(C3CCCC3)c(=O)c3c2c2ccccc2n3C)cc1Cl	·	·	?	?	·	-6.8%	?	-21%
CCOC(=O)C1Cc2ccccc2C(=O)O1 (stereo unspecified)	2%	0%	-3%	-5%	-7%	-4.6%	1%	·
Cc1cccc(C)c1-n1c(C)cc(/C=N/NC(=O)CSc2ncccn2)c1C	-14%	-9%	-2%	?	9%	-7.0%	?	-14%
CNC(=O)COC(=O)c1cc2c(s1)CCCC2	-1%	-15%	·	8%[46.1 µM]	-1%	·	3%	-4%
CCOc1ccc(NC(=O)CN(C)C(=O)c2ccc(-c3ccc(C(C)=O)cc3)o2)cc1OCC	0%	-9%	·	5%	·	·	22%	36%[activator]
CN(C1CCCCC1)S(=O)(=O)c1ccc2c(c1)c(=O)c(C(=O)NCCc1ccccc1)cn2C	·	·	?	14%[46.1 µM]	·	-2.0%	26%[46.1 µM]	-5%
CC1=Nc2ccc(C)cc2N(Cc2ccccc2)C(=O)C1	4%	-1%	-13%	·	-30%	-0.2%	·	-19%
CN(C)CCN(Cc1ccco1)c1ccccn1	·	-12%	·	-11%[46.1 µM]	·	·	?	30%
COc1cc(C=C(C#N)C#N)cc(O)c1O	·	·	-8%	14%&14%&14%&14%	-3%	-10%	·	·
CCN(CC)CCN=CC1=C(O)CNC1=O	0%	45%	-3%	-3%[46.1 µM]	-2%	1.5%	-11%	4%
COC(=O)CN(c1ccc(F)cc1)S(=O)(=O)c1ccccc1	5%	5%	-2%	-14%[46.1 µM]	-6%	6.1%	-8%	8%
O=C(NCCCc1ccccc1)C1CCN(C(=O)N2CCOc3ccc(Cl)cc32)CC1	·	·	2%	·	·	-5.8%	?	?
CC1(C)CC(=O)/C(=C(\O)CCCN2C(=O)c3ccccc3C2=O)C(=NCC(=O)O)C1	-1%	-3%	·	-13%[46.1 µM]	·	·	1%[46.1 µM]	11%
Cc1ccc(S(=O)(=O)/N=C2/NC(=O)/C(=C\c3ccccc3)S2)cc1	-13%	-10%	·	-18%	·	·	-11%	-4%
CCCCc1ccc(NC(=O)c2cc(-c3ccc(C)c(F)c3)on2)cc1	·	·	?	5%[46.1 µM]	·	-8.0%	-2%[46.1 µM]	4%
N#CCCn1nc(-c2ccccc2)cc1Nc1ccccc1NC(=O)c1cccs1	8%	7%	-25%	-7%&-20%	6%	-3.7%	?	-6%
CC(C)c1ccc(N=Cc2c(O)c3ccccc3oc2=O)cc1	-9%	-5%	·	·	8%	·	·	?
Cc1ccc(-c2noc(C3CCCN(C(=O)C4CCCCC4)C3)n2)o1 (stereo unspecified)	0%	5%	0%	3%	-7%	-0.1%	?	0%
COc1cc(CNC(C)(C)CO)ccc1OCC(=O)Nc1ccc(Br)cc1	-1%	-10%	1%	?	-1%	-2.4%	-1%	-2%
Cc1ccc(CN2C(=O)N(c3ccc(C)c(Cl)c3)S(=O)(=O)c3ccccc32)cc1	·	·	?	·	·	-0.7%	2%[46.1 µM]	0%
CN(C)c1ccc(/C=C2\SC(N3CCCCC3)=NC2=O)cc1	-2%	-2%	·	·	-9%	·	·	4%
Cc1ccc(C(=O)Nc2ccc(S(=O)(=O)N3CCOCC3)cc2)cc1Br	·	1%	·	-7%[14.2 µM]	·	·	-7%	-25%
CCN(CC(=O)NCc1ccc(Cl)cc1)C(=O)c1cc(S(=O)(=O)N2CCOCC2)ccc1C	-10%	2%	·	-11%	·	·	-7%	-4%
CCOc1cc(/C=C(/C#N)c2nc3ccccc3[nH]2)ccc1Oc1ccc([N+](=O)[O-])cn1	-1%	-8%	-8%	?	9%	-4.3%	?	·
COc1cccc(CNCCc2cccc(F)c2)c1OC	0%	7%	·	·	6%	·	·	5%
O=c1c2sccc2n(Cc2cc(=O)n3ccccc3n2)c(=O)n1-c1cc(F)ccc1F	·	·	-10%	-16%[46.1 µM]	·	-5.5%	1%[46.1 µM]	-28%
CC(C)CCC1(CCNC(C)c2cccs2)CCOC(C)(C)C1 (stereo unspecified)	1%	1%	·	?	-8%	·	?	21%
O=C(NCc1ccc(Cl)cc1)c1ccc(COCC(F)(F)F)o1	-9%	28%	-3%	?	-35%	4.2%	?	0%
COc1cccc(C2/C(=C(/O)c3ccc(F)cc3)C(=O)C(=O)N2CCN(C)C)c1 (stereo unspecified)	-2%	14%	-1%	-7%	5%	2.1%	28%	·
COc1cccc(-c2nn3c(-c4cc(C)[nH]n4)nnc3s2)c1	2%	-6%	3%	-24%	-2%	1.8%	-20%	-22%
COC(=O)Cn1c2ccccc2c2nc(=O)cc(C)n21	0%	1%	·	-2%[46.1 µM]	·	·	·	-2%
O=C(NCCc1ccc(Cl)cc1)c1ccc2nccnc2c1	6%	-2%	·	·	-15%	·	·	31%[activator]
COc1ccc(Nc2cc(C(=O)NCCc3ccccc3)c3ccccc3n2)cc1OC	·	·	-3%	8%[46.1 µM]	·	-5.4%	-1%[46.1 µM]	9%
COc1ccc(C2c3c(noc3C)CC(C)(O)C2C(C)=O)cc1 (stereo unspecified)	0%	1%	·	·	-2%	·	·	-5%

Other compounds.
SMILES	SARS PLP yeast	RE007 growth inh	Cruzain noTriton	Marburg entry inh	NS1 function inh	Cruzain Triton	Lassa entry inh	2A StopGo
c1nc(N2CCOCC2)c2c3c(sc2n1)CCCC3	-1%	-17%	-5%	4%	-1%	-2.1%	0%	?
COc1cc(/C=C(\C#N)C(=O)NCC2CCCO2)ccc1O (stereo unspecified)	3%	-3%	9%&11%	6%&6%	-5%	-2.0%&-1.3%	-27%[46.1 µM]	-4%&39%
Cc1cccc(C(=O)NCC(=O)NCC(c2ccco2)N2CCCCC2)c1 (stereo unspecified)	-1%	-11%	·	4%	·	·	5%	19%
Cc1ccc(NC(=S)N(CCCN2CCOCC2)Cc2ccco2)cc1C	0%	2%	·	-5%	5%	·	-23%	0%
COc1ccc([N+](=O)[O-])cc1NC(=O)COC(=O)C1CC1	-1%	11%	·	-3%[46.1 µM]	-2%	·	-1%	-13%

Outcome played no part in choosing rows; 4.7% or so of the library scored in one or more.
